Source: PubChem BioAssay
A1 inh: A1 inhibition; MEF A1-2A-BIM cells, caspase-Glo luminescence, 3 h; percent of clofoctol signal, DMSO as zero; caspase activation, % (concentration not given with the values); 21,000 compounds, 0.51% hits; AID 2241;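 active means most replicate scores above 10, or exactly half above 10 with mean activity above 10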;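 further: effector caspase 3 and 7 activity cleaving a DEVD luciferin substrate; 50 nL library stock added to about 30 µL; numbers are from one replicate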
BJeLR viability: BJeLR cell viability reduction | BJeLR fibroblasts viability, CellTiterGlo ATP luminescence, 48 h; HRASV12, hTERT and SV40 LT/ST transformed | viability loss activity score, % (concentration not given with the values) | 30,000 compounds, 0.64% hits; in the data active means viability loss activity score above about 50%; about a fifth of its hits are not listed in these tables;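 further: higher score means fewer live cells and less ATP luminescence; stock transfer was 50 or 100 nL into about 30 µL; 0% = vehicle wells and 100% = a reference killing control; one replicate is shown; the record names a cut of 85%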
The depositor's hits bear a star; · = no result given.

Molecule	A1 inh	BJeLR viability
CC(=O)N1CCSc2cc(S(=O)(=O)Nc3cccc(C)c3)ccc21	-0.2	17
C[C@H]1CN([C@@H](C)CO)C(=O)c2cc(NC(=O)Cn3cnnn3)ccc2O[C@@H]1CN(C)Cc1ccncc1	-0.4	1.6
C[C@@H]1CN([C@H](C)CO)C(=O)c2cccc(NC(=O)C3CCOCC3)c2O[C@H]1CN(C)Cc1ccc(C(=O)O)cc1	·	-6.4
CNC(=O)c1ccc(C(C)(C)C)cc1	0.2	1.2
CC(C)(C)c1cc2oc3c(c2c(C=NCc2ccncc2)c1O)CCCC3	-0.6	-2.8
C[C@@H]1CN([C@@H](C)CO)C(=O)c2cccc(NS(=O)(=O)c3ccc(F)cc3)c2O[C@H]1CN(C)C(=O)Nc1cccc2ccccc12	·	-2.3
C[C@H](CO)N1C[C@H](C)[C@@H](CN(C)Cc2ccc(C(=O)O)cc2)Oc2c(NC(=O)Nc3cccc4ccccc34)cccc2C1=O	·	-1.6
C[C@H](CO)N1C[C@H](C)[C@@H](CN(C)Cc2ccc(-c3ccccc3)cc2)Oc2ccc(NC(=O)c3ccncc3)cc2C1=O	0.4	0.0
COC(=O)C(NC(=O)c1cccc(NC=O)c1O)C(C)O (stereo not drawn)	-0.6	-6.1
COc1ccc(S(=O)(=O)N(C)C[C@H]2Oc3c(NC(=O)c4nc5ccccc5s4)cccc3C(=O)N([C@@H](C)CO)C[C@H]2C)cc1	·	-3.4
Cc1ccc(NC(=O)CSc2nc3c(oc4ccccc43)c(=O)n2Cc2ccc(F)cc2)c(C)c1	0.9	3.6
O=C1SC(c2ccccc2)=N/C1=C/c1ccco1	0.2	-0.3
C[C@@H]1CN([C@H](C)CO)C(=O)c2cccc(NC(=O)Nc3cccc4ccccc34)c2O[C@@H]1CN(C)S(=O)(=O)c1cccs1	·	3.9
Cc1ccc(-n2c(N)c(C#N)c3nc4ccccc4nc32)cc1C	1.5	-5.4
O=C(Nc1ccc(-n2cncn2)cc1)c1ccccc1N1CCOCC1	0.1	0.5

(more compounds)
Molecule	A1 inh	BJeLR viability
CCC(=O)Oc1c(Sc2ccc(C)cc2)c(C)nn1C(C)(C)C	·	3.1
O=C1C(=O)N(Cc2ccc(Cl)c(Cl)c2)c2ccccc21	4.6	-3.7
Cc1ccc(/C=C2/Sc3ccccc3NC2=O)cc1	-2.4	-0.4
C[C@H]1CN([C@@H](C)CO)C(=O)c2cccc(NC(=O)Nc3ccc4c(c3)OCO4)c2O[C@H]1CN(C)C(=O)Nc1cccc2ccccc12	·	-0.9
Cc1ccc(Oc2ncccc2NC(=O)c2ccc3c(c2)OCCCO3)c2c1CCC2	1.4	-11
C[C@@H]1CN([C@@H](C)CO)C(=O)c2cccc(NC(=O)Nc3ccc(F)cc3)c2O[C@H]1CN(C)Cc1ccc(C(=O)O)cc1	·	4.8
O=S(=O)(c1ccc(-c2ccccn2)s1)N1CCCCC1	0.5	2.1
Cc1nc2ccccc2n1Cc1cccc(Cl)c1	-0.7	4.7
C[C@@H]1CN([C@H](C)CO)C(=O)c2cc(NC(=O)Cn3cnnn3)ccc2O[C@H]1CN(C)Cc1ccc(C(=O)O)cc1	-0.1	-0.2
c1ccc(OCCCn2c3ccccc3c3nc4ccccc4nc32)cc1	·	-5.0
CCS(=O)CCSc1nc(-c2ccc(C)cc2)cc(-c2ccccc2)c1C#N (stereo not drawn)	-1.1	0.3
CC1=C(c2ccc(C)cc2)S(=O)(=O)N=C1Nc1ccc(C)cc1	-0.3	5.1
C[C@@H]1CN([C@@H](C)CO)C(=O)c2cc(N(C)C)ccc2O[C@@H]1CN(C)C(=O)Nc1ccc2c(c1)OCO2	0.1	1.1
C[C@@H]1CN([C@@H](C)CO)C(=O)c2cccc(NS(C)(=O)=O)c2O[C@H]1CN(C)Cc1ccc(C(F)(F)F)cc1	·	5.2
COc1ccc(NC(=O)Nc2ccc3c(c2)C(=O)N([C@@H](C)CO)C[C@H](C)[C@@H](CN(C)C(=O)Nc2ccc4c(c2)OCO4)O3)cc1	-0.7	-1.6

A different layout for part of the listing above:
Every second line gives: A1 inh, BJeLR viability
- C[C@@H]1CN([C@H](C)CO)C(=O)c2cc(NC(=O)Cn3cnnn3)ccc2O[C@H]1CN(C)Cc1ccc(C(=O)O)cc1
    -0.1, -0.2
- c1ccc(OCCCn2c3ccccc3c3nc4ccccc4nc32)cc1
    ·, -5.0

Other entries follow.
Molecule	A1 inh	BJeLR viability
O=C(C1c2ccccc2Oc2ccccc21)N1CCN=C1SCc1ccccc1F	·	-3.0
O=c1[nH]c(-c2ccccc2O)nc2sc3c(c12)CCCC3	-5.1	0.2
Cc1ccc(Oc2ccc(C)c(C)c2)cc1C	0.1	-6.1
CC(C)NC(=O)Nc1ccc2c(c1)C(=O)N([C@H](C)CO)C[C@H](C)[C@@H](CN(C)Cc1ccc(C(=O)O)cc1)O2	0.1	2.0
O=C1C(C=NC(CO)(CO)CO)=C(O)c2ccccc21	1.0	-6.0
C[C@H]1CN([C@@H](C)CO)C(=O)c2cc(NC(=O)CCC(F)(F)F)ccc2O[C@H]1CN(C)S(=O)(=O)c1ccccc1	0.0	-4.1
C[C@H]1CN([C@@H](C)CO)C(=O)c2cc(NC(=O)c3ccncc3)ccc2O[C@H]1CN(C)Cc1ccncc1	0.2	7.1
S=C(NCc1csc2ccccc12)NCC1CC1	0.6	-7.0
CCC1(CC)C(=O)N(CC(=O)OC)C(=O)N(C)C1=S	-0.2	0.2
CN(C(=O)Cc1noc2ccccc12)c1ccccc1	0.0	-0.8
COc1ccc(CN(C)C[C@H]2Oc3ccc(NS(=O)(=O)c4ccc(F)cc4)cc3C(=O)N([C@H](C)CO)C[C@H]2C)cc1	0.8	-0.5
C[C@H]1CN([C@@H](C)CO)C(=O)c2cc(NC(=O)Cc3cn(C)c4ccccc34)ccc2O[C@H]1CN(C)Cc1ccc(-c2ccccc2)cc1	1.1	0.7
COc1ccc(CC(=O)NCc2cc(C)oc2C(F)(F)F)cc1OC	2.0	-2.3
C[C@@H]1CN([C@H](C)CO)C(=O)c2cccc(NC(=O)Nc3ccc4c(c3)OCO4)c2O[C@H]1CN(C)Cc1ccncc1	·	-8.6
COc1ccc(NC(=O)N(C)C[C@H]2Oc3ccc(NC(=O)Cc4ccccc4)cc3C(=O)N([C@@H](C)CO)C[C@H]2C)cc1	0.1	-1.5

Following part:
Molecule	A1 inh	BJeLR viability
C[C@@H]1CN([C@H](C)CO)C(=O)c2cccc(NC(=O)NC3CCCCC3)c2O[C@H]1CN(C)Cc1ccc(C(F)(F)F)cc1	·	-1.8
CC1CCCCN1C(=O)Cn1c(=O)n(C2CCCC2)c(=O)c2ccccc21 (stereo not drawn)	·	9.2
COCC1OC(OC(C)(C)C2CCC3(C)C=C(C4CCC5C4(C)CC(O)C4OC(C(C)(C)OC6OC(CO)C(O)C(O)C6NC(C)=O)CCC45C)CCC3O2)C(NC(C)=O)C(O)C1O (stereo not drawn)	-0.6	1.5
CC12CCC(C(=O)O)(c3nc4ccc5ncccc5c4nc31)C2(C)C (stereo not drawn)	1.1	-2.7
COc1ccc(NC(=O)Nc2cccc3c2O[C@H](CN(C)Cc2ccncc2)[C@H](C)CN([C@@H](C)CO)C3=O)cc1	·	0.5
C[C@@H]1CN([C@@H](C)CO)C(=O)c2cccc(NC(=O)C3CCCCC3)c2O[C@@H]1CN(C)Cc1ccncc1	·	-1.7
CCc1ccc(/C(C#N)=C/C=C/c2ccccc2)cc1	-3.3	14
O=C(COc1ccc2ccccc2c1)Nc1ccc(Cc2ccccn2)cc1	-2.5	0.5
C[C@@H]1CN([C@@H](C)CO)C(=O)c2cc(NC(=O)CCC(F)(F)F)ccc2O[C@@H]1CN(C)C(=O)Nc1ccccc1	-0.1	-0.5
COc1ccc(NC(=O)N(C)C[C@H]2Oc3c(NS(=O)(=O)c4ccc(Cl)cc4)cccc3C(=O)N([C@H](C)CO)C[C@@H]2C)cc1	·	4.2
C[C@H]1CN([C@@H](C)CO)C(=O)c2cc(NC(=O)Nc3ccccc3)ccc2O[C@@H]1CN(C)S(=O)(=O)c1cn(C)cn1	0.5	-5.1
C[C@H](CO)N1C[C@H](C)[C@@H](CN(C)S(C)(=O)=O)Oc2ccc(NC(=O)C3CC3)cc2C1=O	0.2	6.7
N#Cc1c(N)nc(Sc2ccc(Cl)cc2)c(C#N)c1-c1ccccc1	42*	5.7
Cc1ccc(S(=O)(=O)Nc2cccc3c2O[C@@H](CN(C)S(=O)(=O)c2ccc(F)cc2)[C@H](C)CN([C@H](C)CO)C3=O)cc1	·	0.8
Cc1ccc(S(=O)(=O)Nc2ccc3c(c2)C(=O)N([C@H](C)CO)C[C@@H](C)[C@H](CN(C)Cc2ccc(C(=O)Nc4ccccc4N)cc2)O3)cc1	·	14

(cont.)
Molecule	A1 inh	BJeLR viability
Brc1ccc(N=C(c2ccccc2)c2ccncc2)cc1	-0.2	-12
C[C@H](CO)N1C[C@H](C)[C@H](CN(C)S(C)(=O)=O)Oc2c(NC(=O)Nc3ccc(F)cc3)cccc2C1=O	·	2.7
O=C(c1ccc2c(c1)N(Cc1ccccc1)C(=O)c1ccccc1S2(=O)=O)N1CCCCC1	·	-1.4
CNC(=O)NC(=O)CSc1ncnc2sc(-c3ccccc3)cc12	-1.2	7.6
S=C(NCC(c1cccnc1)N1CCOCC1)Nc1ccccc1 (stereo not drawn)	·	-6.8
NC(=O)CCN1C(=O)c2ccccc2C1=O	1.1	0.7
CC(C)c1ccc(NC(=S)NCc2ccc(C#N)cc2)cc1	0.1	-5.6
COc1ccc(NC(=O)N(C)C[C@H]2Oc3c(NC(=O)NC(C)C)cccc3C(=O)N([C@@H](C)CO)C[C@H]2C)cc1	·	-1.4
Cc1ccc(-n2nc3c(c2NC(=O)/C=C\c2ccccc2)CSC3)cc1	·	-0.5
C[C@@H]1CN([C@@H](C)CO)C(=O)c2cc(NC(=O)c3ccncc3)ccc2O[C@@H]1CN(C)Cc1ccc(C(=O)Nc2ccccc2N)cc1	·	8.9
COc1cccc(NC(=O)C(C)Sc2nc(-c3ccccc3)cc(C(F)(F)F)n2)c1 (stereo not drawn)	-0.1	-3.3
C[C@@H]1CN([C@H](C)CO)C(=O)c2cc(N(C)C)ccc2O[C@@H]1CN(C)Cc1ccc(C(=O)Nc2ccccc2N)cc1	·	54*
O=C(c1nc2ncccn2n1)N1CCc2ccccc2C1	-0.1	2.4
O=C(CSc1nnc(CNC(=O)c2ccco2)o1)NCc1ccccc1	·	-3.5
CC1CC(C)CN(c2ccc(NS(=O)(=O)c3ccccc3)cc2C(=O)O)C1 (stereo not drawn)	-0.3	-0.5

Later entries:
Molecule	A1 inh	BJeLR viability
CCCNC(=O)C1=C(C)C(=O)OC12CCCCC2	·	-2.1
Cc1nc2ccccc2c(=O)n1NCc1ccccc1Br	0.6	-0.4
Cc1nc(O)c(C(c2ccccc2F)C(C#N)C#N)[nH]1 (stereo not drawn)	1.3	4.7
C[C@@H]1CN([C@@H](C)CO)C(=O)c2cc(NC(=O)Cc3cn(C)c4ccccc34)ccc2O[C@H]1CN(C)Cc1ccc(Cl)c(Cl)c1	-0.2	0.4
CC1CCN(C(=O)CCNS(=O)(=O)c2cccc3nsnc23)CC1	·	0.9
CNC[C@H]1Oc2ccc(NC(=O)Nc3c(C)noc3C)cc2C(=O)N([C@H](C)CO)C[C@H]1C	-0.5	3.9
C[C@H]1CN([C@@H](C)CO)C(=O)c2cccc(NC(=O)Nc3ccc(C(F)(F)F)cc3)c2O[C@@H]1CN(C)Cc1ccc(C(=O)O)cc1	·	10
Cc1noc(C)c1NC(=O)Nc1cccc2c1O[C@H](CN(C)C(=O)NC(C)C)[C@H](C)CN([C@H](C)CO)C2=O	·	-2.6
CCOC(=O)c1ccccc1NS(C)(=O)=O	0.3	15
Cc1ccc(C(=O)CSc2nnc(-c3snnc3C)n2C2CC2)cc1	0.0	-4.6
CC(C)NC(=O)Nc1ccc2c(c1)C(=O)N([C@H](C)CO)C[C@@H](C)[C@H](CN(C)C(=O)Nc1ccc3c(c1)OCO3)O2	0.9	1.8
COC(=O)c1ccc2c(c1)NC(=O)c1ccccc1S2	-0.2	-2.9
COc1cc2c(cc1OC)C(c1ccc(N)cc1)=NNC(=O)C2	0.1	3.4
CCOC(=O)N1CCN(C(=O)c2ccco2)CC1	0.6	2.6
C[C@H](CO)N1C[C@H](C)[C@@H](CN(C)CC2CC2)Oc2c(NS(C)(=O)=O)cccc2C1=O	·	-2.6

Following part.
Molecule	A1 inh	BJeLR viability
O=c1c2ccccc2nc(SCc2ccc(Cl)cc2)n1Cc1cccs1	-0.4	-3.0
CCCN(C(=O)Cc1c(C(=O)O)n(CC)c2ccccc12)c1cccc(Cl)c1	0.4	-2.7
C[C@H](CO)N1C[C@H](C)[C@@H](CN(C)CC2CCCCC2)Oc2c(NC(=O)c3ccncc3)cccc2C1=O	·	-1.6
Cc1noc(C)c1NC(=O)N(C)C[C@@H]1Oc2c(NS(=O)(=O)c3ccc(Cl)cc3)cccc2C(=O)N([C@@H](C)CO)C[C@H]1C	·	-0.7
CNS(=O)(=O)c1c(I)ccc2ccccc12	0.6	-0.7

Compounds above with a tert-butyl group, in the order listed:
Molecule	A1 inh	BJeLR viability
CNC(=O)c1ccc(C(C)(C)C)cc1	0.2	1.2
CC(C)(C)c1cc2oc3c(c2c(C=NCc2ccncc2)c1O)CCCC3	-0.6	-2.8
CCC(=O)Oc1c(Sc2ccc(C)cc2)c(C)nn1C(C)(C)C	·	3.1

Only part of the results is shown; rates above refer to the full screens.
